Assay outcomes: PubChem, several laboratories
HNF4A DNA FP: change in binding of human HNF4 alpha to DNA; HNF4a-FITC DNA binding, fluorescence polarization, 1 h; activity change, % at 10 µM; P41235; 360,000 tested, 0.3% active; in the data active = activity change above about 30%, passing the limit was not always enough;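 also: controls were the assay level and a saturating level of protein; the project sought stronger binding though the title names inhibitors; some compounds called inactive have numbers as strong as hits; positive values seem to mean higher polarization but the record does not say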
Target sequence (P41235 whole entry, looked up): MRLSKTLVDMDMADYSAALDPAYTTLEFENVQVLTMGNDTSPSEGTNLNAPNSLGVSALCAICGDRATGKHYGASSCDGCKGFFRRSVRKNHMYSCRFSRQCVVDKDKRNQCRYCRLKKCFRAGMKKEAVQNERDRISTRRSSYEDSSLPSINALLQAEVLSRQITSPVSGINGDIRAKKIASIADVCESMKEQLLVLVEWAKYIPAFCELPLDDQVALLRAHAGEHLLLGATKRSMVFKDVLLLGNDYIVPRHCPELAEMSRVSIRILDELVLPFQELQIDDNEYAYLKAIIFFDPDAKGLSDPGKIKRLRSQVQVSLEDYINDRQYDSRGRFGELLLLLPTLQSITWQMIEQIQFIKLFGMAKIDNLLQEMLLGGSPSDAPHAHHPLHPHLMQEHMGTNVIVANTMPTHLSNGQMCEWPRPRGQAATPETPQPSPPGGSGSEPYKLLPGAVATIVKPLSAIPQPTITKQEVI
RanGTP-Imp inh: inhibitors of RanGTP-importin-beta interaction, primary screen, biochemical, FRET, CFP-Ran, YFP-importin-beta, homogeneous; cell-free CFP-Ran/YFP-importin-beta FRET ratio; inhibition, % (test concentration not listed); 300,000 tested, 1.1% active; AID 2216;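 active = most replicates above 15%; inconclusive = exactly half above 15%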;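 also: 0% = DMSO wells and 100% = Ran loaded with GDP instead of GTP; wells of about 40 µL received 100 nL stock; the first replicate is given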
MLL AF4-AF9 inh: blocks AF4 peptide binding to human AF9 | inhibition, % at 10 µM | 350,000 tested, 0.47% active | P42568 | AlphaScreen, biotin-AF4 peptide binding to FLAG-AF9;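 active = every replicate reaching a set inhibition limit, whatever the replicate mean, cut at about 25% in these data; inconclusive = mean inhibition reaches that limit but some replicates miss it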;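 also: 0% = plate neutral control median and 100% = total signal loss; the record names both 10 and 1 µM as test concentration; the first replicate is given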
Vif A3G: HIV-1 Vif–A3G interaction blockers – biochemical, TR-FRET, GST-Vif 1-94, biotin-A3G peptide, dose response retest, primary screen (AID 1117319); TR-FRET GST-Vif / biotin-A3G peptide binding; higher % means a stronger effect; test concentration not given here; strong numbers were not always called active; inhibition, %; hits with a dose series show IC50 in µM; 260,000 tested, 0.57% active;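 active = above the screen mean plus three standard deviations and confirmed in dose response; inconclusive = results disagree or hit not tested in dose response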;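 also: Vif residues 1-94 fused to GST binding biotinylated APOBEC3G peptide 110-148; 0% = full assay without inhibitor and 100% = GST in place of GST-Vif; retest series ran down from 100 µM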
Ecoli growth: inhibitors of Escherichia coli growth; 330,000 tested, 0.21% active; OD600 absorbance (concentration not given with the values); OD600, 23 h; active compounds read low; AID 1053175;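 active = OD600 absorbance below the run mean of sample wells minus 3.6 SD, in any replicate, cut at about 0.56 in these data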;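 also: stock transfer was 300 nL into about 60 µL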
FGF22 binding: FGF22 (human) thermal shift binding | recombinant FGF22 thermal shift, SYPRO orange fluorescence; percent of sucrose octasulfate shift, DMSO zero | 340,000 tested, 1.5% active | calls only at 9.99 µM | Q9HCT0;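 active = melting point raised past a set limit in the mean and every replicate; inconclusive = no clear call; three in four hits are not shown here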
Target sequence (Q9HCT0 whole entry, looked up): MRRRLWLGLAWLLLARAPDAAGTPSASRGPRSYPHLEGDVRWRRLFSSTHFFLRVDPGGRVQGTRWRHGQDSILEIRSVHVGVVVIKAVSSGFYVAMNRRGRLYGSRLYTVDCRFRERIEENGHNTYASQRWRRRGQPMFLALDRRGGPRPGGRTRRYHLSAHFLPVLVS
UCH37 DUB inh: human UCH37 deubiquitinating enzyme inhibition; 330,000 tested, 0.33% active; AID 588478; purified proteasome/UCH37, Ub-AMC cleavage fluorescence; inhibition, % (no concentration beside the values);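 active = mean of two replicates above 20%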;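 also: 0% = compound-free wells with enzyme and 100% = wells lacking proteasome; stock transfer was 100 nL into about 20 µL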
Target sequence (Q9Y5K5 whole entry, looked up): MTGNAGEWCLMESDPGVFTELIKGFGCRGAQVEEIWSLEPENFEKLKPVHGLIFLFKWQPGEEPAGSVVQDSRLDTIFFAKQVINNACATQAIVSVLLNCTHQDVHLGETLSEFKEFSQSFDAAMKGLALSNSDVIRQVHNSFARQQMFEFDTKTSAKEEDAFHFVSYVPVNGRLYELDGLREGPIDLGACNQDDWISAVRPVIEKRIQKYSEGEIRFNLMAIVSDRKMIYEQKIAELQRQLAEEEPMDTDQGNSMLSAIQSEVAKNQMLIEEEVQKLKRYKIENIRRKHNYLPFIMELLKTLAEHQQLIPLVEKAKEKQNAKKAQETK
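Assay system: Proteasome-bound UCH37. Buffer or medium: pH 7.4 Tris-HCl (50 mM) with ovalbumin, ATP-MgCl2, DTT. Incubation: 30 min preincubation with enzyme, 25 min cleavage at room temperature. Measured by: fluorescence, ex 355 nm, em 460 nm. Read-out basis: percent inhibition. Control set: wells without proteasome as full block, compound-free enzyme plus substrate as uninhibited.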
* hit, by the source's call; i = inactive; ? = inconclusive; nt = not tested or not shown. The list is partial. The share of hits here may be higher or lower than overall.

SMILES	HNF4A DNA FP	RanGTP-Imp inh	MLL AF4-AF9 inh	Vif A3G	Ecoli growth	FGF22 binding	UCH37 DUB inh
C[C@@]12C(=O)N(Cc3ccccc3)CC(=O)N1[C@H]1c3ccccc3OC[C@@H]1[C@@H]2c1ccccc1	-1.1	nt	1.8	nt	nt	i	1.0
COc1cccc2c(=S)c(CCC(C)=O)c(C)[nH]c12	3.1	4.2	0.5	23.6%	0.665	i	-31.0
CN(Cc1ccccc1)c1ccc(C(CC(N)=O)NC(=O)Cc2cccc3ccccc23)cc1[N+](=O)[O-] (stereo unspecified)	0.3	5.5	3.5	nt	0.655	i	1.4
O=C1NN(c2cccc(Br)c2)C(=O)/C1=C\c1ccccc1	2.1	1.8	-1.3	71.8%	0.669	i	3.4
Clc1ccc2nc(COc3ccccc3)[nH]c2c1	4.0	0.4	0.1	nt	0.628	i	1.8
CCCCNC(=S)NNC(=O)c1ccco1	3.0	-1.6	nt	2.0%	0.631	nt	1.4
CC1=NN(c2ccc(S(=O)(=O)O)cc2C)C(=O)C1	-3.4	2.0	-1.5	nt	0.646	i	10.1
N#CC1=C(N)N(c2ccccc2)C(c2cccc([N+](=O)[O-])c2)C1(C#N)C#N (stereo unspecified)	0.8	1.1	nt	?	0.82	nt	3.0
c1ccc(Cn2nnnc2-c2ccco2)cc1	-1.1	2.4	nt	69.8%	0.661	nt	1.0
CC(C)c1ccc(NC(=O)NC(C)c2ccc3c(c2)OCO3)cc1 (stereo unspecified)	-1.5	-3.4	-0.1	nt	0.679	i	0.5
Cc1ccc(S(C)(=O)=O)cc1S(=O)(=O)Nc1cccc(Cl)c1	3.9	?	-6.8	0.7%	0.67	i	2.5
COc1cc(NC(=O)C(C)Oc2ccccc2)ccc1NC(=O)COc1ccccc1 (stereo unspecified)	-1.5	?	-1.9	nt	0.709	i	3.0
Cc1ccc(NC(=O)c2nnn(-c3ccc4c(c3)OCCO4)c2N)cc1	3.6	1.2	-0.7	nt	0.65	i	4.5
Cc1ccc(-c2cc(C(=O)NCc3cnn(C)c3C)c3cc(Br)ccc3n2)cc1	-0.2	1.1	nt	-64.2%	0.73	nt	2.0
Clc1ccc(Cn2cc(Br)cn2)cc1Cl	2.5	?	nt	-2.9%	0.669	nt	1.6
CCN(CC(=O)NC(C)C)Cc1nc2c(Br)cc(Br)cc2c(=O)[nH]1	7.8	0.3	-2.2	nt	nt	i	nt
COc1ccc(-c2nc3nc(C)c(Cc4ccccc4)c(=O)n3[nH]2)cc1	-2.4	-1.2	nt	-0.9%	0.712	nt	5.5
COc1cc2[nH]c(=O)n(CCCCCC(=O)N3CCN(c4ccccc4)CC3)c(=O)c2cc1OC	6.6	4.2	nt	5.7%	0.711	nt	-1.4
CC(C)CC(NC(=O)C(NC(=O)OC(C)(C)C)C(C)C)C(N)=O (stereo unspecified)	-6.2	-1.4	-0.8	nt	0.704	i	0.7
CCCCC1CCC(C(=O)N(CC(C)C)c2c(N)n(Cc3ccccc3)c(=O)[nH]c2=O)CC1 (stereo unspecified)	nt	0.8	-1.6	nt	nt	i	nt
Cc1ccc(Nc2nc(-c3ccc(O)c(O)c3)cs2)nc1	nt	0.1	42.2*	-11.8%	0.663	nt	4.2
NC(=S)NN=Cc1nccc2c(C(F)(F)F)cccc12	-2.5	nt	-0.8	nt	nt	i	nt
CN(CC(=O)Nc1ccc(Cl)cc1)C(=O)COc1ncnc2ccccc12	2.9	nt	-1.6	1.0%	0.699	i	-3.1
O=C1CCC(=O)c2oc3ccccc3c2N1	0.9	5.0	nt	-6.9%	0.739	nt	3.8
COc1ccc(C2=NS(=O)(=O)N(C)C(C(=O)N3CCOCC3)=C2)cc1OC	-0.6	-3.0	-1.3	nt	0.691	i	5.8

Other results
SMILES	HNF4A DNA FP	RanGTP-Imp inh	MLL AF4-AF9 inh	Vif A3G	Ecoli growth	FGF22 binding	UCH37 DUB inh
CCCC1S/C(=N/N=C/c2ccc(C)cc2)N(Cc2ccc(OC)cc2)C1=O (stereo unspecified)	-1.0	-3.3	nt	-6.4%	nt	nt	nt
CN(Cc1cccs1)C(=O)COc1cccc(-n2cnnn2)c1	-2.5	2.5	nt	5.8%	0.712	nt	5.6
O=C(Nc1c(-c2ccccc2)nc2ccc(Cl)cn12)c1cccs1	-2.8	9.9	nt	nt	0.722	nt	1.0
O=C1CCCN1c1ccc(C(=O)N(Cc2nnc(-c3ccc(Cl)cc3)o2)C2CC2)cc1	1.9	3.1	-0.8	0.4%	0.703	i	0.6
COc1cc(Br)c(CC(=O)O)cc1OC	nt	-0.9	nt	4.6%	0.732	nt	0.6
O=C(Nc1ccc(Cl)cc1)Nn1cnnc1	1.0	-5.8	5.5	-0.8%	0.716	i	0.8
Oc1ccccc1-c1n[nH]c(=S)n1Cc1ccccc1	3.8	1.2	-2.4	3.0%	0.698	i	2.4
O=Cc1cn(CC(=O)NCC2CCCO2)c2ccccc12 (stereo unspecified)	0.3	-2.2	nt	20.8%	0.638	nt	0.8
Cc1cc2c(cc1C)-n1nnnc1C(N1CCCNCC1)C(=O)N2 (stereo unspecified)	5.2	nt	-0.2	nt	nt	i	nt
CCCCCn1c(=O)[nH]c2cc(C(=O)NCCCN(CC)CC)ccc2c1=O	-1.3	?	nt	-2.4%	0.684	nt	-15.7
NS(=O)(=O)c1ccc(CNC(=O)c2ccc3c(c2)OCO3)cc1	-0.8	nt	5.6	nt	0.673	i	1.3
Cc1[nH]c2ccccc2c1C(=O)CSC(=S)N1CCOCC1	-0.7	-0.1	-1.8	-4.8%	0.69	i	2.9
COC(=O)[C@@]1(Cc2ccc(OC)cc2)[C@H]2c3cc(C(=O)N4CCCC4)n(Cc4ccc(S(C)(=O)=O)cc4)c3C[C@H]2CN1C(=O)c1ccccc1	1.6	nt	3.9	nt	nt	i	nt
O=C(c1ccccc1Cl)N(Cc1ccc(Cl)c(Cl)c1)N1C(=O)CCCC1=O	0.4	?	1.1	?	0.683	i	2.1
O=C(OCC(=O)N1CCOCC1)c1cncc(Br)c1	4.5	nt	-11.4	-0.9%	nt	i	nt
O=C(O)c1ccc(NS(=O)(=O)c2ccc3c(c2)OCCO3)cc1	-2.3	0.0	-2.9	-3.8%	0.725	i	1.7
CC1(C(=O)NCc2ccc(C(F)(F)F)cc2)CCN1Cc1cc2ccccc2o1 (stereo unspecified)	-2.6	nt	-5.0	nt	nt	i	nt
CC(C)NS(=O)(=O)c1ccc(NC(=O)C(C)OC(=O)C2CCC2)cc1 (stereo unspecified)	1.4	nt	-1.8	-1.2%	0.718	i	-2.1
CCCCC(C)n1[nH]c(=O)c2c(C)cc(C)nc21 (stereo unspecified)	-1.2	-2.2	?	2.6%	0.688	i	-0.6
CCCNc1ncnc2sc(C)c(C)c12	2.2	nt	nt	0.4%	0.664	nt	-0.1
CCN(CC)c1cc(Cl)nc(N)n1	-0.8	0.6	-0.1	12.6%	0.688	i	3.2
O=C(O)c1ccc(NC(=O)c2ccccc2Br)c(NC(=O)c2ccccc2Br)c1	-2.1	-2.2	2.5	-2.8%	0.672	i	2.8
Cc1cc(NC(=O)CSc2nnc(-c3ccco3)n2Cc2ccco2)no1	-1.1	2.4	nt	-1.4%	0.72	nt	6.1
CC1(NC(=O)CCc2nc3sc4c(c3c(=O)[nH]2)CCCC4)CCS(=O)(=O)C1 (stereo unspecified)	-1.9	4.4	0.2	10.4%	0.625	i	-4.0
Cc1ccc(NC(=O)CCN2CCC(C)CC2)cc1	4.3	4.0	-3.1	nt	0.689	i	1.0

Among those listed so far, 2 have fluorine:
SMILES	HNF4A DNA FP	RanGTP-Imp inh	MLL AF4-AF9 inh	Vif A3G	Ecoli growth	FGF22 binding	UCH37 DUB inh
NC(=S)NN=Cc1nccc2c(C(F)(F)F)cccc12	-2.5	nt	-0.8	nt	nt	i	nt
CC1(C(=O)NCc2ccc(C(F)(F)F)cc2)CCN1Cc1cc2ccccc2o1 (stereo unspecified)	-2.6	nt	-5.0	nt	nt	i	nt

Carrying on.
SMILES	HNF4A DNA FP	RanGTP-Imp inh	MLL AF4-AF9 inh	Vif A3G	Ecoli growth	FGF22 binding	UCH37 DUB inh
C[C@H]1O[C@@H](O[C@H]2CC[C@@]3(C)C(CC[C@]4(C)C3C=CC3=C5CC(C)(C)CC[C@]5(CO)[C@H](O)C[C@]34C)[C@]2(C)CO)[C@H](O)[C@@H](O[C@@H]2O[C@H](CO)[C@@H](O)[C@H](O)[C@H]2O)[C@H]1O (stereo partly specified)	-3.5	nt	3.0	nt	nt	i	1.5
COc1ccc(OC)c(Cc2nnc(CCC(=O)NC(C3CC3)C3CC3)o2)c1	0.4	1.9	-0.7	1.6%	0.7	nt	1.9
CCS(=O)(=O)N1Cc2cc(C(=O)N(C)C)nc(-c3cccc(-c4ccc(F)cc4)c3)c2[C@H]1CCO	-3.3	nt	-2.4	nt	nt	i	nt
O=S(=O)(Nc1ccccc1)C1CCCCC1	-0.5	nt	-1.9	-1.4%	0.666	i	1.8
CCc1nnc(NC(=O)CSc2nc3c(c(=O)n2CC)SC(C)C3)s1 (stereo unspecified)	0.2	-1.9	3.7	-0.9%	0.672	i	1.2
O=C(NC1CCCC1)c1ccc(CS(=O)(=O)Cc2ccccc2Cl)o1	-5.5	2.4	-3.2	-3.0%	0.691	i	4.8
CCOc1ccc(CN(C)C(=O)c2cc(S(=O)(=O)N3CCCC3)ccc2C)cc1	4.2	nt	-0.2	4.1%	0.708	i	5.4
COc1ccccc1C(=O)Nc1ccccc1SC	1.1	-3.0	nt	-0.1%	0.654	nt	1.0
COc1ccccc1C(=O)/C=C/c1ccc(N2CCCCC2)c([N+](=O)[O-])c1	-1.5	-1.6	13.6	nt	0.704	i	3.3
Cn1nc(C(F)(F)F)c(/C=N/OCc2c(Cl)cccc2Cl)c1Cl	-0.5	-1.6	nt	2.6%	nt	nt	nt
Cc1ccc2nc(CCc3ccc(N)cc3)[nH]c2c1	3.5	-0.4	5.9	-3.2%	0.646	i	1.7
C#CCOCCOCCOCCNc1nc(N2CCN(C(=O)[C@H]([C@@H](C)CC)n3cc([C@@H](N)CO)nn3)CC2)nc(N2CCN(C(=O)[C@H](Cc3ccc(O)cc3)n3cc([C@@H](N)CC(C)C)nn3)CC2)n1	-0.6	-1.5	15.1	nt	nt	i	0.8
O=C(CNc1cccc(S(=O)(=O)N2CCOCC2)c1)Nc1ccccc1F	0.5	-2.9	-9.7	nt	0.691	i	-0.1
Cc1ccc(S(=O)(=O)Nc2cccc(-n3cnnn3)c2)cc1C	-2.5	0.4	-0.9	nt	0.668	i	2.6
Cc1cccc(C)c1Cn1c(C)c(C(=O)NCc2ccc(C#N)cc2)sc1=O	-2.7	nt	0.6	nt	nt	i	nt
CC(SCC(=O)Nc1ccccc1)c1nc2ccccc2c(=O)[nH]1 (stereo unspecified)	3.5	-0.5	-7.2	1.7%	0.697	i	3.4
Cc1ccc2nc3n(c(=O)c2c1)-c1ncccc1C(=O)NC3Cc1ccccc1 (stereo unspecified)	-2.2	nt	-1.7	3.6%	nt	i	nt
Cc1ccc(NC(=O)CNS(=O)(=O)c2ccc(F)cc2)cc1C	5.5	5.2	-1.4	-6.4%	0.659	i	1.3
Cn1c(=O)c2c(nc(Br)n2CCc2ccccc2)n(C)c1=O	0.8	-0.5	nt	5.5%	0.708	nt	0.9
Cc1ccccc1OCC(=O)Nc1ccc(C)c(S(=O)(=O)N2CCCCCC2)c1	2.2	-0.5	3.3	nt	nt	i	nt
COc1cc(NC(=O)N2CCNC2=O)cc(C(=O)Nc2cccc(C(F)(F)F)c2)c1	1.0	1.1	-7.1	nt	0.677	i	0.8
